VDR inhibitor: blocks the human vitamin D receptor | P11473 | VDR-SRC2-3 peptide fluorescence polarization, 2 h | Potency, µM, for inactives: max response, negative = inhibition, hits mostly inhibitors | 400,000 compounds, 0.93% hits | AID 504847; active means well fitted inhibition curve with a large enough effect; inconclusive means small, poorly fitted or top-dose-only effect, or another doubt; inactive means no such curve, though single readings can be large or run the other way; further: series mostly up to about 120 µM
Target sequence (P11473 whole entry, looked up): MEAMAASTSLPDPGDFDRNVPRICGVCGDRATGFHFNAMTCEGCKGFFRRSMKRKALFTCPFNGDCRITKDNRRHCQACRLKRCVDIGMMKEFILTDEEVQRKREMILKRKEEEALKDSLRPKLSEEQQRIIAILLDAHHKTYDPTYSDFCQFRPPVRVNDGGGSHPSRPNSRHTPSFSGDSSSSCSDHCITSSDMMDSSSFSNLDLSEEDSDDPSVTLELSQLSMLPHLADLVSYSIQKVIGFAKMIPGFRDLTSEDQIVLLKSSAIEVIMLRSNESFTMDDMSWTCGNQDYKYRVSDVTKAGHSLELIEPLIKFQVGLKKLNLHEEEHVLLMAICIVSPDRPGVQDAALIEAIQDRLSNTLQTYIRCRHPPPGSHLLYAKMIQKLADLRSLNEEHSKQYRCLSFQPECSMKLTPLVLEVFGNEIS
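Reagent solutions, kept cold and dark, are dispensed first; compounds are then pinned in at 23 nl, plates briefly spun, and incubated 2 h at ambient temperature. Inhibition of VDR–SRC2-3 peptide binding is read by fluorescence polarization.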
An asterisk follows results filed as active; u = inconclusive; & = joins results of further samples. On the % scale 0 is the no-effect control and ±100 the full control effect; potency means the concentration at half of the fitted maximal effect.

VDR inhibitor	Molecule
-8%	Cc1cccc(-c2nsc(SCC(=O)NCc3ccco3)n2)c1
6%	Cn1nc(C(F)(F)F)c(/C=N/OC(=O)c2ccccc2)c1Cl
8%	CC(C)c1ccc(C2C3=C(CC(C)(C)CC3=O)NC3=C2C(=O)c2ccccc23)cc1 (stereo not given)
-12%	O=C(Nc1ccccc1N1CCN(C(=O)c2ccc(Cl)cc2)CC1)c1cc2ccccc2o1
-6%	C=CCC[C@@H](Cc1ccc(F)cc1)C(=O)OC[C@@H](NC(=O)[C@@H](CC=C)CC(=O)N[C@H](CO)Cc1ccccc1)C(C)(C)C
u	C=CCOC(/C=C/c1ccccc1)C[Si](C)(C)C (stereo not given)
6%	CC(C)[C@H](NC(=O)C1CC(=O)N(c2ccc3c(c2)OCCO3)C1)C(=O)NC1CCCC1 (stereo not given in full)
8%	CN(Cc1cccs1)C(=O)CCc1c[nH]c2ccccc12
1%	COCCCNC(=O)c1ccc(Cn2c(=O)c3ccccc3n(Cc3ccccc3C#N)c2=O)cc1
-4%	CCC(=O)N(Cc1ccc(S(N)(=O)=O)cc1)C1CC(=O)N(c2ccc(OC)cc2)C1=O (stereo not given)
11%&1%	Cc1c(C)n(CCN(C)C)c2ccc(C(=O)OCCN(C)C)cc12
u	O=C(c1ccc(Br)o1)N1N=C(c2ccc(Cl)cc2)CC1c1ccco1 (stereo not given)
-10%	COc1ccc(C(=O)NCCS(=O)(=O)NCc2cccs2)cc1
-12%	COCCNC(=O)c1onc(CSc2cc(C)cc(C)c2)c1C(=O)NCCOC
-7%	O=C(O)C#Cc1cccc2ccccc12
-7%	Cc1ccc(/C=N/n2c(-c3ccncc3)n[nH]c2=S)s1

A few values from the results shown:
VDR inhibitor, `COCCNC(=O)c1onc(CSc2cc(C)cc(C)c2)c1C(=O)NCCOC` stands at -12%
VDR inhibitor, `COCCCNC(=O)c1ccc(Cn2c(=O)c3ccccc3n(Cc3ccccc3C#N)c2=O)cc1` stands at 1%
VDR inhibitor, `CCC(=O)N(Cc1ccc(S(N)(=O)=O)cc1)C1CC(=O)N(c2ccc(OC)cc2)C1=O` (stereo not given) stands at -4%
VDR inhibitor, `O=C(O)C#Cc1cccc2ccccc12` stands at -7%
VDR inhibitor, `Cc1c(C)n(CCN(C)C)c2ccc(C(=O)OCCN(C)C)cc12` stands at 11%&1%

Next section.
VDR inhibitor	Molecule
-9%	CCOc1ccc2[nH]c(=O)c(CN(Cc3ccco3)C(CC)c3nnnn3Cc3ccccc3)cc2c1 (stereo not given)
-12%	O=C(Nc1ncc2c(n1)CC(c1cccc(Cl)c1)CC2=O)c1ccco1 (stereo not given)
3%	O=C(c1cc(C(F)(F)F)cc(C(F)(F)F)c1)N1CCC[C@@]2(CCN(c3ncccn3)C2)C1
17%	O=C(COC(=O)c1ccc(Cl)c(S(=O)(=O)N2CCc3ccccc3C2)c1)Nc1ncc(Cl)cc1Cl
1%	CC(=O)Nc1ccc(NC(=O)C(C)n2c3ccccc3c3nc(=O)cc(C)n32)cc1 (stereo not given)
-11%	COc1ccc(CN2C(=O)CNC2=S)cc1
3%	CC(C)(C)C(=O)COC(=O)c1ccccc1O
-5%	Cn1c(=O)n(C)c2cc([N+](=O)[O-])c(N3CCN(C(=O)c4ccccc4Cl)CC3)cc21
-16%	Cc1ccc(CCNC(=O)CN2C(=O)COc3ccc(S(=O)(=O)N4CCCCCC4)cc32)cc1
-19%	Cc1nn(-c2ccccc2)c(Cl)c1/C=N\NC(=O)c1cnccn1
-11%	CCN(CC(=O)NC(C)(C)C)C(=O)COc1c(Cl)cc(Cl)c2ccc(C)nc12
13%	S=C(NCCc1c[nH]c2ccccc12)NC1CCCCC1
-1%	O=C(NNc1ncnc2c1cnn2-c1ccccc1)c1ccco1
-6%	CCc1nn2c(=O)cc(COc3ccc(/C=C(\C#N)C(=O)Nc4ccc(C)cc4)cc3)nc2s1
7%	Cc1ccc(-n2ncc3c(N4CCC(Cc5ccccc5)CC4)ncnc32)cc1
6%	COc1ccc(S(=O)(=O)N2CCC(NC(=O)c3ccccc3)CC2)cc1
9%	COc1ccc(-n2nc(C(=O)N3CCN(Cc4ccc5c(c4)OCO5)CC3)c3ccccc3c2=O)cc1
-12%	O=C(COc1ccc2ccccc2c1)N1CCN(C(=O)c2cccs2)CC1
6%	Cc1ccc(NS(=O)(=O)c2cc(C(=O)N3CCN(C)CC3)ccc2C)cc1C
9%	CC(C)(C)C1N=C(c2ccc3ccccc3c2)OC1=O (stereo not given)
-6%	O=C(NC1(Cc2ccccc2)CCN(CCc2cccs2)C1=O)c1ccccc1 (stereo not given)
16%	Cc1nc(N)[nH]c(=O)c1Oc1cccc(C(F)(F)F)c1
-17%	CCN(CC)S(=O)(=O)c1ccc2c(c1)C(=NO)c1cc(S(=O)(=O)N(CC)CC)ccc1-2
26%	Cc1cc(C)cc(OCc2nnc(SCC(=O)OC(C)C)o2)c1
-10%	COC(CN(C)S(=O)(=O)c1cc2c3c(c1)CCN3C(=O)CC2)OC
-14%	COc1ccc(NS(=O)(=O)c2cccs2)cc1S(=O)(=O)N1CCOCC1
-13%	O=S(=O)(Nc1ccc(F)cc1F)c1ccc(Br)s1
-5%	OCC[C@@H]1C[C@@H](O)[C@H](O)[C@@]2(Cc3ccccc3O2)O1
-4%	N=C1S/C(=C\c2ccc(-c3cccc(Cl)c3)o2)C(=O)N1c1nccs1
u	CCOC(=O)COc1c(Cl)cc(/C=C2\N=C(C)OC2=O)cc1OC
-25%	Cc1cccc(C)c1-n1c(SCC(=O)N2CC(=O)Nc3ccccc32)nc2ccccc2c1=O
-6%	COc1ccccc1CCC(=O)N1CCN(S(=O)(=O)c2cc(C(F)(F)F)ccc2Cl)CC1

Looked up by compound from the entries so far (three):
VDR inhibitor	Molecule
-11%	CCN(CC(=O)NC(C)(C)C)C(=O)COc1c(Cl)cc(Cl)c2ccc(C)nc12
8%	CC(C)c1ccc(C2C3=C(CC(C)(C)CC3=O)NC3=C2C(=O)c2ccccc23)cc1 (stereo not given)
-14%	COc1ccc(NS(=O)(=O)c2cccs2)cc1S(=O)(=O)N1CCOCC1

(further entries)
VDR inhibitor	Molecule
-3%	CC(C)c1ccccc1NC(=O)CCCC(=O)O
6%	Cc1cccnc1NC(=O)CNC(=O)COc1ccccc1
-18%	Cc1ccc(-c2c(C(=O)N/N=C/c3cccc(Cl)c3)nnn2-c2nonc2N)cc1
14%	Cc1ccc(C)c(-c2cc(C(=O)Nc3cccc(C(=O)O)c3)c3ccccc3n2)c1
4%	CC1Oc2ccccc2N(CC(=O)NCCN2CCOCC2)C1=O (stereo not given)
3%	CC(C)(O)CC[C@@H](O)[C@](C)(O)C1CC[C@@]2(O)C3=CC(=O)[C@]4(O)C[C@@H](O)[C@@H](O)C[C@]4(C)C3CC[C@]12C (stereo not given in full)
-11%	CC(=O)Nc1ccc(-n2cc(-c3ccccc3)[nH]c2=S)cc1
-11%	Cc1nn(-c2c(Cl)cc(Cl)cc2Cl)c(=O)c2ccccc12
-1%	Cc1ccc(C(=O)OCC(=O)N2CCCc3ccccc32)cc1C
-9%	COc1ccc(S(=O)(=O)Nc2cccc3c2O[C@H](CN(C)C(=O)Nc2c(C)noc2C)[C@@H](C)CN([C@H](C)CO)C3=O)cc1
-7%	CCOC(=O)C1=NN(c2ccccc2)C2(S1)SC(C(C)=O)=C(C)N2c1ccccc1 (stereo not given)
12%	NC(=O)c1ccc(Cl)c2ccccc12
11%	CC1CC(=O)c2cnc(Nc3ccccc3)nc2C1 (stereo not given)
8%	O=C(Cc1sc(-c2ccccc2)nc1-c1ccccc1)Nc1ccccc1
-1%	COc1ccc(Br)cc1CN(C)C(=O)c1cnc(C)cn1
8%	Cc1cc(C)cc(OCCSc2nc(-c3cccs3)nc3cc(=O)[nH]n23)c1

The closing six records of the part before come first, to join the parts:
VDR inhibitor	Molecule
-7%	CCOC(=O)C1=NN(c2ccccc2)C2(S1)SC(C(C)=O)=C(C)N2c1ccccc1 (stereo not given)
12%	NC(=O)c1ccc(Cl)c2ccccc12
11%	CC1CC(=O)c2cnc(Nc3ccccc3)nc2C1 (stereo not given)
8%	O=C(Cc1sc(-c2ccccc2)nc1-c1ccccc1)Nc1ccccc1
-1%	COc1ccc(Br)cc1CN(C)C(=O)c1cnc(C)cn1
8%	Cc1cc(C)cc(OCCSc2nc(-c3cccs3)nc3cc(=O)[nH]n23)c1
-15%	COc1ccc(-c2ccc3nnc(SCC(=O)N4CCCC4)n3n2)cc1
13%	COC(=O)c1c(-c2ccc(Cl)cc2)noc1N1CCN(c2cccc(C)c2C)CC1
6%	Cc1ccc(C)c(N(CC(=O)NC2CCCC2)C(=O)CCCC(=O)Nc2ccccn2)c1
13%	COc1cccc(C2=NOC(C(=O)Nc3cc(C)on3)C2)c1 (stereo not given)
5%	C=C[C@H](Cc1ccccc1)N(Cc1ccccc1)S(=O)(=O)N(Cc1ccccc1)[C@H](C=C)Cc1ccccc1
18%	CCOC(=O)c1c(NC(=O)/C=C/c2ccc3c(c2)OCO3)sc(C)c1CC
12%	CC(=O)c1ccccn1
28%	C=CCO/N=C(/CCC)C1=C(N)CC(C)(C)CC1=O
1%	O=C(NCC(O)c1ccc([N+](=O)[O-])cc1)Nc1ccccc1 (stereo not given)
-9%	CCOc1cc(CN2CCN(S(=O)(=O)Cc3ccccc3)CC2)ccc1OC
12%	Nc1ccc(-c2ncc(-c3ccccc3)o2)cc1
4%	Cc1onc(-c2ccccc2)c1CNC(=O)Nc1ccccc1
-6%	CCCNC(=O)CC(NS(=O)(=O)c1ccc(OC)cc1)c1ccco1 (stereo not given)
10%	COc1ccc(Cn2nnc3c(=O)[nH]c(C4CCCN(C(=O)c5ccccc5Cl)C4)nc32)cc1OC (stereo not given)
13%	N#C/C(=C/c1ccc(F)cc1)c1nnc(NC(=O)c2ccccc2)s1
5%	COC(=O)[C@]1(Cc2ccccc2)N[C@H](CN(C)S(=O)(=O)c2ccc(OC(F)(F)F)cc2)[C@@H]2C(=O)N(Cc3ccccc3)C(=O)[C@@H]21
-7%	O=C(/C=C/c1ccccc1Cl)N(Cc1cccs1)C1CCS(=O)(=O)C1 (stereo not given)
4%	Cc1ccc(CNC(=O)c2cc(C3CC3)nc3c2c(C)nn3-c2cccc(Cl)c2C)cc1
13%	COc1cc(OC)cc(C(=O)N[C@H](C(=O)Nc2nc3ccccc3[nH]2)C(C)C)c1
-19%	O=C(CN(C(=O)c1csnn1)c1cccc(C(F)(F)F)c1)NCc1ccc(F)cc1
9%	Cc1oc2ccc(O)c(CN3CCCC3)c2c1C(=O)Nc1cccc(Cl)c1C
0%	COc1cc(C2NC(=O)N(C)C3=C2C(=O)CCC3)cc(OC)c1OC (stereo not given)
7%	CC(C)(C)c1ccc(Oc2ncccc2NC(=O)c2cccs2)cc1
7%	COc1ccccc1NC(=O)c1cc[n+](C)cc1
16%&12%	CCc1nn(CCCC(=O)N2CCN(c3ccc(OC)cc3)CC2)c(=O)c2cc3occc3n12
-20%	CCOC(=O)N1CCN(C(=O)c2cccc(N3C(=O)NC4CC3(C)Oc3ccc(Cl)cc34)c2)CC1 (stereo not given)
-26%	COc1ccc(S(=O)(=O)Cc2ccc(C(=O)N3CCN(c4ccccc4F)CC3)o2)cc1
-1%	CCN(CC)C(=O)CSc1nnc(CNc2ccc(F)cc2)o1
-5%	COc1cc(/C=C(/C#N)c2ccc(C)cc2)ccc1Oc1ccc([N+](=O)[O-])cn1
-13%	Cc1ccc(NC(=O)COc2ccc3oc4c(c3c2)CCCC4)cc1C
1%	Cc1ccc(-n2cnc3cc(C(=O)NCc4ccc(F)cc4)ccc32)c(C)c1
-14%	C/C(=N\O)C(C)(C)Nc1cccc(Br)c1
3%	O=S1(=O)NC(=NCc2ccco2)c2ccccc21
-6%	Cc1ccc(OC(C)C(=O)N2CC(=O)Nc3ccccc32)cc1 (stereo not given)
5%	COc1ccc(OC)c(Nc2sc(C(=O)c3ccccc3)c(N)c2S(=O)(=O)c2ccccc2)c1
-15%	COc1cnn(-c2ccc([N+](=O)[O-])cc2)c(=O)c1Cl
3%	COc1ccc(-c2nsc3c(N4CCN(C(=O)c5ccco5)CC4)ncnc23)cc1
4%	O=C(Cn1nnc2ccccc21)N/N=C/c1ccco1
-4%	CN(C)c1ccc(/C=C/c2nc3ccccc3c(=O)[nH]2)cc1
4%	Cc1cc2c(cc1NS(=O)(=O)c1ccc(F)cc1)n(C)c(=O)c(=O)n2C
-14%	O=C(CSc1nc2ccc(Nc3nc(N4CCOCC4)nc(N4CCOCC4)n3)cc2s1)Nc1ccccc1Cl
6%	CCOC(=O)N1CCN(C(=O)c2ccc(Cl)c(S(=O)(=O)N3CCOCC3)c2)CC1
-15%	COc1ccc(S(=O)(=O)NCc2csc(-c3cccnc3)n2)cc1
11%	CCc1nn(CC(=O)N(C)Cc2ccccc2)c(=O)c2cc3sccc3n12
4%	N#CCCn1cc(/C=N/O)c(-c2ccc(F)cc2)n1
0%	CC(C)N(C(=O)COC(=O)c1cccc(S(=O)(=O)N2CC3(C)CC2CC(C)(C)C3)c1)C(C)C (stereo not given)
-2%	O=C(Nc1ccccc1NC(=O)c1ccccc1F)c1ccccc1F
u	Cc1ccc(N2CCN(C(=S)c3ccc(-c4cccc([N+](=O)[O-])c4)o3)CC2)cc1
-7%	Cc1cccc2cc3c(N)c(C(=O)N4CCc5ccccc54)sc3nc12
6%	CCC1(c2ccccc2)NC(=O)N(CC(=O)NC2CCCC2)C1=O (stereo not given)
-15%	COc1ccccc1CC(=O)N(Cc1ccccc1)c1cccc(C)c1
-8%	COc1ccc(NC(=O)COc2ccccc2)cc1NC(=O)c1ccco1
12%	CCOC(=O)C(C)(C)N(Cc1ccc(C)cc1)S(=O)(=O)c1ccc(Cl)c([N+](=O)[O-])c1
-4%	Cc1nn(C)c(C)c1/C=C/C(=O)c1ccccc1
1%	CCN(CC(=O)Nc1cccc(OC)c1)C(=O)c1ccc(C)s1
-23%	O=C(CNC(=O)c1cccc(F)c1)N/N=C/c1cc(Br)ccc1OC(=O)/C=C/c1ccco1
5%	CN1CCN(c2ccc(NC(=O)COc3ccc(Cl)cc3Cl)cc2)CC1

Some of the compounds tested; rates above refer to the full screens.
